BJeLR viab HTS = compounds reducing viability of BJeLR cells | BJeLR fibroblasts viability, CellTiterGlo ATP luminescence, 48 h; HRASV12, hTERT and SV40 LT/ST transformed | viability loss activity score, % (test concentration not listed) | 0.64% of 30,000 active | AID 2275; in the data active = viability loss activity score above about 50%; about a fifth of its hits are not listed in these tables;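 note: higher score means fewer live cells and less ATP luminescence; stock transfer was 50 or 100 nL into about 30 µL; 0% = vehicle wells and 100% = a reference killing control; one replicate is shown; the record names a cut of 85%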
A1 inh = inhibitors of A1 | MEF A1-2A-BIM cells, caspase-Glo luminescence, 3 h; percent of clofoctol signal, DMSO as zero | caspase activation, % (no concentration beside the values) | 0.51% of 21,000 active;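 active = most replicate scores above 10, or exactly half above 10 with mean activity above 10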;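 note: effector caspase 3 and 7 activity cleaving a DEVD luciferin substrate; 50 nL library stock added to about 30 µL; numbers are from one replicate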
* marks the source's active call; other numbers are inactive results; x = not tested or not shown.

Sequence of screens – BJeLR viab HTS | A1 inh
C[C@H]1CN([C@@H](C)CO)C(=O)c2cc(NC(=O)Nc3cccc4ccccc34)ccc2O[C@@H]1CN(C)Cc1ccc(Oc2ccccc2)cc1
  -4.0 | 0.5
C=C1C(N)CC2CC1C2(C)C (stereo unspecified)
  -2.9 | 0.0
COc1ccc(S(=O)(=O)N(C)C[C@@H]2Oc3c(NC(=O)c4cnccn4)cccc3C(=O)N([C@H](C)CO)C[C@@H]2C)cc1
  4.9 | x
CCOc1ccccc1N(C)C(=O)c1cc2c(=O)n(CC)c3ccccc3c2s1
  0.8 | x
O=C(O)c1ccc2c(c1)C1C3CCC(C3)C1C(c1ccccc1)N2 (stereo unspecified)
  2.4 | 0.9
CC(=O)Nc1ccc(NC(=O)Cn2cnc3c(oc4ccccc43)c2=O)cc1
  -5.5 | -0.2
C[C@@H]1CN([C@H](C)CO)C(=O)c2cccc(NS(=O)(=O)c3ccccc3)c2O[C@@H]1CN(C)CC1CCCCC1
  -4.4 | x
O=C(NC1CCCCCCC1)c1nnc(-c2cccc(Cl)c2)o1
  -1.6 | x
Cc1onc(-c2ccccc2)c1-c1csc(Nc2ccccc2Cl)n1
  -0.2 | -0.2
CC1=C(C(=O)OCc2ccccc2)C2(O)C(=O)c3ccccc3C2(O)N1 (stereo unspecified)
  -5.9 | 2.4
C[C@@H]1CN([C@@H](C)CO)C(=O)c2cccc(NC(=O)Nc3ccc(C(F)(F)F)cc3)c2O[C@@H]1CN(C)C(=O)Nc1ccc(F)cc1
  -0.2 | x
Cc1cccc(NS(=O)(=O)c2c(C)n[nH]c2C)c1
  1.9 | x
CCOC(=O)c1sc2ncn(/N=C/c3ccc4c(c3)OCCO4)c(=O)c2c1C
  3.0 | x
C[C@@H]1CN([C@H](C)CO)C(=O)c2cccc(NC(=O)C3CCOCC3)c2O[C@@H]1CN(C)S(=O)(=O)c1cn(C)cn1
  1.4 | x
CNC[C@H]1Oc2ccc(NC(=O)Cc3ccccc3)cc2C(=O)N([C@@H](C)CO)C[C@H]1C
  1.5 | 0.0
COc1ccc(C2=NN(CC(=O)Nc3cc(C)ccc3C)C(=O)CC2)cc1
  2.6 | 0.6
COc1ccc(NC(=O)N(C)C[C@@H]2Oc3c(NC(=O)Nc4c(C)noc4C)cccc3C(=O)N([C@H](C)CO)C[C@H]2C)cc1
  0.0 | x
C[C@@H]1CN([C@@H](C)CO)C(=O)c2cc(NS(=O)(=O)c3ccc(F)cc3)ccc2O[C@@H]1CN(C)Cc1ccncc1
  15 | -0.7
C[C@@H]1CN([C@@H](C)CO)C(=O)c2cc(NS(=O)(=O)c3ccccc3)ccc2O[C@@H]1CN(C)C(=O)Nc1ccc(C(F)(F)F)cc1
  -8.2 | 0.9
CC(=O)OCC(=O)[C@H]1CC[C@H]2[C@@H]3CCC4=CC(=O)CC[C@]4(C)[C@H]3CC[C@]12C
  -9.4 | 1.0

Arranged by the number under A1 inh (high to low): 3 from the list above.
Structure | A1 inh
CC(=O)OCC(=O)[C@H]1CC[C@H]2[C@@H]3CCC4=CC(=O)CC[C@]4(C)[C@H]3CC[C@]12C | 1.0
C=C1C(N)CC2CC1C2(C)C (stereo unspecified) | 0.0
CC(=O)Nc1ccc(NC(=O)Cn2cnc3c(oc4ccccc43)c2=O)cc1 | -0.2

3 structures out of the list, sorted by count of non-hydrogen atoms, high to low.
Sequence of screens – BJeLR viab HTS | A1 inh
C[C@@H]1CN([C@@H](C)CO)C(=O)c2cc(NS(=O)(=O)c3ccccc3)ccc2O[C@@H]1CN(C)C(=O)Nc1ccc(C(F)(F)F)cc1
  -8.2 | 0.9
CCOC(=O)c1sc2ncn(/N=C/c3ccc4c(c3)OCCO4)c(=O)c2c1C
  3.0 | x
O=C(O)c1ccc2c(c1)C1C3CCC(C3)C1C(c1ccccc1)N2 (stereo unspecified)
  2.4 | 0.9

(listing goes on)
Sequence of screens – BJeLR viab HTS | A1 inh
CCSc1nnc(NC(=O)CSc2nnc(Cc3cccn3C)n2-c2ccc(F)cc2)s1
  -3.8 | 0.5
CCCCC1CCC(C(=O)Nc2c3c(nn2-c2ccc(F)cc2)CS(=O)(=O)C3)CC1 (stereo unspecified)
  0.1 | 15*
CCOC(=O)c1c(NC(=S)Nc2ccc(OC)cc2)sc2c1CC(C(C)C)OC2 (stereo unspecified)
  3.7 | x
C[C@H](CO)N1C[C@H](C)[C@H](CN(C)Cc2ccncc2)Oc2c(NC(=O)c3nc4ccccc4s3)cccc2C1=O
  0.1 | x
CCOC(=O)c1c(C)c2c(n1C)CCC/C2=N\O
  -0.7 | 0.8
Cc1ccc(S(=O)(=O)Nc2cccc3c2O[C@@H](CN(C)C(=O)Nc2ccccc2)[C@@H](C)CN([C@H](C)CO)C3=O)cc1
  7.7 | x
O=C(CSc1ncnc2c1oc1ccccc12)OCc1ccccc1
  1.8 | x
C[C@H]1CN([C@@H](C)CO)C(=O)c2cccc(NC(=O)Nc3ccc(C(F)(F)F)cc3)c2O[C@@H]1CN(C)C(=O)Nc1ccccc1
  11 | x
O=C(NC(NCc1ccccn1)(C(F)(F)F)C(F)(F)F)c1cccnc1
  -0.7 | 2.4
COC(=O)c1ccccc1NC(=O)CCn1cccc1
  -5.5 | -1.2
O=C(NC(=O)c1ccccc1C(F)(F)F)NN1CCCCC1
  0.4 | 1.7
NC(=O)c1cc2c(n(-c3ccccc3)c1=O)CCCC2=O
  -1.9 | -0.2
COc1ccc(S(=O)(=O)N(C)C[C@@H]2Oc3ccc(NC(=O)CCCCCC(=O)Nc4ccccc4N)cc3C(=O)N([C@@H](C)CO)C[C@H]2C)cc1
  -1.4 | x
C[C@@H]1CN([C@H](C)CO)C(=O)c2cc(NC(=O)Nc3ccccc3)ccc2O[C@H]1CN(C)C(=O)Nc1ccc2c(c1)OCO2
  2.4 | 0.2
C=CCNC(=S)N1N=C2c3ccccc3CCC2C1c1ccccc1Cl (stereo unspecified)
  -1.6 | 0.7
CCCN(C(=O)c1cc2cc3ccc(OC)cc3nc2o1)c1ccc(CC)cc1
  -5.9 | x
CC(C)Nc1ccc(-n2nc3ccccc3[n+]2[O-])cc1
  2.3 | x
C[C@H]1CN([C@@H](C)CO)C(=O)c2cccc(NC(=O)NC3CCCCC3)c2O[C@@H]1CN(C)Cc1ccccc1
  -0.2 | x
O=S(=O)(c1ccccc1)c1nc(N2CCCc3ccccc32)sc1Cl
  -2.8 | -0.1
CN(C)/C=N/n1cnc2sc3c(c2c1=O)CCCC3
  -3.3 | -0.3
CCCc1ccc(O)c(N)c1
  -6.6 | 0.7
CC1CC(=O)N(c2cc(C(F)(F)F)cc(C(F)(F)F)c2)C1=O (stereo unspecified)
  1.1 | 0.3
CNC(=O)c1csc(Cc2c(Cl)sc3ccc(Cl)cc23)n1
  5.0 | -0.1
O=C(CSc1nc2ccccc2c(=O)n1Cc1ccco1)c1ccccc1
  -0.7 | -0.2
C[C@H]1CN([C@@H](C)CO)C(=O)c2cc(NS(=O)(=O)c3cccs3)ccc2O[C@H]1CN(C)CC1CC1
  -5.1 | 0.3
Cc1ccn2cc(CNC(=O)c3ccccc3)nc2c1
  1.2 | 0.1
C[C@H]1CN([C@@H](C)CO)C(=O)c2cc(NC(=O)Cc3ccccc3)ccc2O[C@H]1CN(C)C(=O)Nc1ccccc1
  0.5 | -1.1
C[C@H](CO)N1C[C@H](C)[C@H](CN(C)S(=O)(=O)c2cn(C)cn2)Oc2ccc(NC(=O)Nc3ccc(F)cc3)cc2C1=O
  -2.8 | 0.0
O=C(c1noc2c1CCCC2)N1CCCCC1
  2.1 | x
CCOC(=O)c1ccc(CN(Cc2ccccc2C)S(=O)(=O)c2ccc3c(c2)OCCO3)cc1
  3.4 | -1.1
CC(C)(C)c1ccc(-c2cc(NS(=O)(=O)c3ccccc3)c(C(N)=O)s2)cc1
  4.1 | x
Cc1noc(C)c1S(=O)(=O)N(C)C[C@H]1Oc2c(NS(C)(=O)=O)cccc2C(=O)N([C@@H](C)CO)C[C@H]1C
  -3.1 | x
CCOC(=O)C1=NN(c2ccc(OC)cc2)C(c2ccccc2)CC1=O (stereo unspecified)
  1.7 | 0.9
CC(C)NC(=O)N(C)C[C@H]1Oc2ccc(NC(=O)c3ccncc3)cc2C(=O)N([C@H](C)CO)C[C@@H]1C
  4.3 | -0.3
c1ccc(C2C3=C(Nc4ncnn42)c2ccccc2CCC3)cc1 (stereo unspecified)
  -1.4 | 0.1
CC(C)NC(=O)Nc1ccc2c(c1)C(=O)N([C@@H](C)CO)C[C@@H](C)[C@@H](CN(C)C(=O)Nc1ccccc1)O2
  -2.6 | -0.2
C[C@H](CO)N1C[C@H](C)[C@@H](CN(C)C(=O)Nc2cccc3ccccc23)Oc2ccc(NC(=O)CCN3CCOCC3)cc2C1=O
  1.4 | 0.5
C(=N\C(/N=C/c1ccccc1)c1ccccc1)/c1ccccc1
  -4.1 | 0.6
C[C@@H]1CN([C@@H](C)CO)C(=O)c2cc(NC(=O)CCCCCC(=O)Nc3ccccc3N)ccc2O[C@H]1CN(C)S(=O)(=O)c1ccc(Cl)cc1
  17 | x
Cc1noc(C)c1NC(=O)N(C)C[C@H]1Oc2c(NS(C)(=O)=O)cccc2C(=O)N([C@H](C)CO)C[C@@H]1C
  -5.3 | x
O=C1c2ccccc2C(=O)N1CCC12CC3CC(CC(C3)C1)C2
  -0.6 | 0.5
CCN(C(=O)c1cc2c(s1)-c1ccccc1SC2)c1ccccc1
  -5.7 | 0.3
O=C(Nc1csc(Cc2c(Cl)cccc2Cl)n1)NN1CCOCC1
  0.6 | 0.9
CC1=C(C(=O)OCc2ccc(C)cc2)C(c2cc3c(cc2Br)OCO3)CC(=O)N1 (stereo unspecified)
  -0.4 | x
O=C(Oc1ccc(Br)cc1)c1ccco1
  -1.7 | 0.8
Cc1onc(-c2ccccc2)c1C(=O)NCC1COc2ccccc2O1 (stereo unspecified)
  0.4 | 0.8
c1ccc2oc(CCCc3nc4ccccc4o3)nc2c1
  -0.6 | -0.6
COc1ccc(C(=O)CC(C#Cc2ccccc2)CC(=O)c2ccc(OC)cc2)cc1
  -4.2 | -0.3
C[C@H](CO)N1C[C@H](C)[C@H](CN(C)C(=O)Nc2ccc(C(F)(F)F)cc2)Oc2c(NC(=O)c3nc4ccccc4s3)cccc2C1=O
  -0.6 | x
CC(C)NC(=O)N(C)C[C@@H]1Oc2ccc(NC(=O)Nc3ccc4c(c3)OCO4)cc2C(=O)N([C@H](C)CO)C[C@@H]1C
  -0.6 | 0.3
CCc1c(O)nc2ccccn2c1=O
  -0.3 | 0.8
O=c1c(Cl)c(N2CCN(c3ccccc3)CC2)cnn1-c1ccccc1
  2.2 | -0.7
CC(C)NC(=O)N(C)C[C@H]1Oc2ccc(NC(=O)Nc3ccc(F)cc3)cc2C(=O)N([C@@H](C)CO)C[C@H]1C
  -0.9 | -0.6
CCC(Sc1nc2c(sc3ccccc32)c(=O)n1CCc1ccccc1)C(=O)N1CCOCC1 (stereo unspecified)
  -6.3 | -0.6
Cc1ccc(S(=O)(=O)Nc2cccc3c2O[C@@H](CN(C)S(=O)(=O)c2ccc(Cl)cc2)[C@@H](C)CN([C@H](C)CO)C3=O)cc1
  2.4 | x
Cc1noc(C)c1S(=O)(=O)Nc1ccc2c(c1)C(=O)N([C@@H](C)CO)C[C@@H](C)[C@@H](CN(C)Cc1ccc(-c3ccccc3)cc1)O2
  -7.9 | -0.7
C[C@H](CO)N1C[C@H](C)[C@@H](CN(C)S(=O)(=O)c2ccc(F)cc2)Oc2ccc(NC(=O)CCC(F)(F)F)cc2C1=O
  1.1 | 0.1
N#Cc1c(-c2cccs2)c2c([nH]c1=S)CCCC2
  1.1 | -0.3
COc1ccc(Nc2nc3c(C)cccn3c(=O)c2C=NCc2ccccc2)cc1
  -5.8 | -0.3
C[C@@H]1CN([C@@H](C)CO)C(=O)c2cccc(NC(=O)Nc3ccc(F)cc3)c2O[C@H]1CN(C)Cc1ccncc1
  3.7 | x

Later entries.
Sequence of screens – BJeLR viab HTS | A1 inh
CN(C)c1nc(OC(C(F)(F)F)C(F)(F)F)nc(N(c2ccccc2)c2ccccc2)n1
  -0.6 | 0.4
C[C@H](CO)N1C[C@H](C)[C@@H](CN(C)Cc2ccc(Oc3ccccc3)cc2)Oc2c(NC(=O)Nc3ccc(F)cc3)cccc2C1=O
  -3.6 | x
Cc1noc(C)c1NC(=O)Nc1cccc2c1O[C@@H](CN(C)C(=O)Nc1ccc3c(c1)OCO3)[C@@H](C)CN([C@H](C)CO)C2=O
  1.4 | x
Nc1nc(C2COc3ccccc3O2)ncc1S(=O)(=O)c1ccccc1 (stereo unspecified)
  -2.2 | -0.2
CC1(C(=O)c2ccccc2)C2c3cc(Br)ccc3OC(=O)C21C(=O)N1CCCCC1 (stereo unspecified)
  -2.5 | x
NS(=O)(=O)c1ccc(CCNC(=O)c2ccc(Cn3c(=O)[nH]c4ccccc4c3=O)cc2)cc1
  17 | 1.5
CC1(C)N=C(c2ccccc2)C(=O)N1CC(=O)Nc1ccccc1
  11 | 0.8
Cc1cccn2cc(-c3cccc(NS(=O)(=O)c4ccc(Cl)cc4)c3)nc12
  -0.8 | 0.0
O=P(CN(Cc1cccs1)CC1CCCO1)(c1ccccc1)c1ccccc1 (stereo unspecified)
  2.3 | 1.4
C[C@H]1CN([C@@H](C)CO)C(=O)c2cccc(NC(=O)c3ccncc3)c2O[C@H]1CN(C)Cc1ccc2c(c1)OCO2
  0.1 | x

Assay outcomes as filed in PubChem.

Not all compounds are listed (hit frequency here may not be typical).
